GALR2 ag = GALR2 receptor agonists, primary screen, cell-based. Galanin receptor type 2 (Homo sapiens), O43603. GALR2-expressing cells, agonist activation read-out. activation, %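 (tested at 5 µM)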. hit rate 0.48% among 140,000. AID 803, 2007;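 active = above mean plus 3 SD of all compounds, about 5% in these data, not always enough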;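 also: 0% = vehicle buffer wells and 100% = reference agonist at full effect; tested in CHO reporter cells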
Target sequence (O43603 whole entry, looked up): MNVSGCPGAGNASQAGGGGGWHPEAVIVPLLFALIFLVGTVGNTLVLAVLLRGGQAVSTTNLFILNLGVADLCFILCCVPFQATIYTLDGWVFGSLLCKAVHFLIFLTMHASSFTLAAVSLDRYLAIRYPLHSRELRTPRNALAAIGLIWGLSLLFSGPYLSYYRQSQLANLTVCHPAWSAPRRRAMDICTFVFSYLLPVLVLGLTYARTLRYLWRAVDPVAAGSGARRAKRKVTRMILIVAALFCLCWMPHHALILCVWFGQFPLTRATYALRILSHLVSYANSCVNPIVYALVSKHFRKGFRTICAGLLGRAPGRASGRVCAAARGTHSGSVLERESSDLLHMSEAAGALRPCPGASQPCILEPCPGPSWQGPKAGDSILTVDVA
HSV augment = enhancers of HSV replication in host cells, fold increase, host cell viability; hit rate 0.005% among 220,000; HSV replication augmentation in cells; maximum fold increase;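 active = peak rise of 1.5-fold or more in the series; inconclusive = self-fluorescent or not available for retest; tested in PC3 cells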;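 also: first round at 10 µM; read as green reporter fluorescence; hits show the peak of a series up to 25 µM; 1 = signal of infected wells without compound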
RGS16-Gao = modulators of RGS16 binding to Galphao, primary screen, biochemical, human proteins, multiplexed bead flow cytometry | Regulator of G-protein signaling 16 (Homo sapiens) + Guanine nucleotide-binding protein … | bead-based flow cytometry RGS16-Galphao binding, fluorescence; actives lie on both sides | binding response (% of control), % at 10 µM | hit rate 0.38% among 220,000 | AID 1441, 2008;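 active = below 25% or above 175%, edge rows of some plates excepted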;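 also: Galphao activated by GDP with aluminum fluoride before binding; 100% = wells without compound and 0% = beads without RGS; some results beyond the cut were filed as inactive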
Target sequence (O15492 whole entry, looked up): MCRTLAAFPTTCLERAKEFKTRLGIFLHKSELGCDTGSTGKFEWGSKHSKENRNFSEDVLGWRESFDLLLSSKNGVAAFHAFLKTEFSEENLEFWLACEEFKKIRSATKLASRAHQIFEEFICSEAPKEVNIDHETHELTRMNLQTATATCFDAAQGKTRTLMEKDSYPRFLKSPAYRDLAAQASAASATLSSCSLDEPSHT
Target sequence (P09471 whole entry, looked up): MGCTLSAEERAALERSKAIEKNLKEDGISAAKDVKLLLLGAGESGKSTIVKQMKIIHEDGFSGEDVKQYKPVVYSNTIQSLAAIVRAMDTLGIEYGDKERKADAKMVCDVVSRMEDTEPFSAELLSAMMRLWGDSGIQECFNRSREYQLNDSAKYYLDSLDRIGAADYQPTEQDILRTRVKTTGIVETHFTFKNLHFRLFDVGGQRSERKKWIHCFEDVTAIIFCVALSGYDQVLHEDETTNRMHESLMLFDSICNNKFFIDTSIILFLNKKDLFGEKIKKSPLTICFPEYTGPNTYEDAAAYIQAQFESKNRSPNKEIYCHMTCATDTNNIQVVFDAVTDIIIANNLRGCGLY
INS promoter inh = inhibitors of insulin promoter-driven GFP, primary screen, imaging, TRM-6 cells (human fetal islet line), eGFP reporter, cell count; reporter expression induced with tamoxifen; inhibition, % at 2 µM; hit rate 0.9% among 130,000;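 active = inhibition above the mean plus 3 SD, with well images judged a real hit on visual review, cut at about 60% in these data, passing the limit was not always enough; inconclusive = inhibition over the cutoff but images rejected on review; inactive = inhibition not above the cutoff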
PKD1 inh = inhibitors of human PKD1 kinase, biochemical, fluorescence polarization; Serine/threonine-protein kinase D1 (Homo sapiens), Q15139; PKD1 kinase fluorescence polarization assay; inhibition, %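 (about 10 µM by stock and volumes)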; hit rate 0.056% among 200,000; AID 797, 2007;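 active = inhibition of 50% or more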;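 also: controls were vehicle for no effect and a reference inhibitor for full effect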
INS promoter inh cell count = second read-out of INS promoter inh, no call of its own (marks repeat the call); normalized cell count, %; measured here: cell count, toxicity; reference of the scale not given here;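 cells exposed to compound for 48 h; stained nuclei by imaging scaled within each plate; lower means fewer cells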
HSV augment primary fold = also measured in HSV augment; calls as there; fold increase; compound at 10 µM; measured here: primary screen fold increase 10 uM; tested in PC3 cells;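 GFP signal in the first replicate; 1 = infected wells without compound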
* marks the source's active call; other numbers are inactive results; i = inactive; u = inconclusive; x = no result given.

compound | GALR2 ag | PKD1 inh | INS promoter inh | HSV augment primary fold | RGS16-Gao | HSV augment | INS promoter inh cell count
CCC(=O)Nc1ncc2c(n1)CC(c1ccco1)CC2=O (centres undefined) | -1.1 | -7.4 | 71.4 | 0.88 | 101.4 | i | 137.3
Cc1ccccc1-n1c(SCC(=O)c2cc(C)n(C)c2C)nnc1-c1cccnc1 | -0.7 | -2.6 | -6.2 | 1.04 | 102.4 | i | 87.7
CCCc1nc(SCC(=O)N2CCN(c3ccccc3)CC2)c2c(=O)n(C)c(=O)n(C)c2n1 | -1.3 | -3.6 | x | x | 100.3 | x | x
CCOC(=O)Nc1cccc2ccccc12 | -1.7 | -2.9 | x | 1.1 | 104.0 | i | x
CN1C(=O)C(CC(=O)NCCc2ccccc2)N(NC(=O)c2ccc(Cl)cc2)C1=S (centres undefined) | x | x | x | 1.13 | 101.7 | i | x
CC(C)(C)c1cc(C(=O)Nc2ccc(F)cc2)n(Cc2ccc(F)cc2)n1 | x | x | x | 0.98 | 104.0 | i | x
COc1ccc(-c2noc(N3CCC(C(=O)N4CCN(c5ccccn5)CC4)CC3)n2)cc1 | -0.2 | -6.6 | 0.0 | 0.89 | 93.4 | i | 102.3
Cc1cc(=O)oc2cc(OC(=O)c3ccco3)ccc12 | x | -1.1 | x | 0.99 | 100.6 | i | x
Nc1ncncc1-c1ccc(Cl)cc1 | x | x | x | 0.93 | 102.5 | i | x
CC(C)Oc1cccc(C(=O)NC(=S)N2CCN(c3ccc(C(F)(F)F)cc3[N+](=O)[O-])CC2)c1 | -3.6 | 1.4 | x | 0.89 | 102.7 | i | x
O=C(c1cc(-c2ccncc2)nc2ccccc12)N1CCN(S(=O)(=O)/C=C/c2ccccc2)CC1 | -1.2 | 2.0 | 55.9 | 0.86 | 118.8 | i | 77.9
O=C(Nc1ccccc1C(=O)N1CCOCC1)c1noc2c1CCCC2 | -1.0 | -3.5 | -23.1 | 1.03 | 106.0 | i | 118.6
O=C1CC(NNC(=O)c2ccc(Br)cc2)C(=O)N1 (centres undefined) | x | x | x | 0.96 | 100.5 | i | x
CC(C)CNC(=O)CC(=O)N/N=C/c1ccc(Br)cc1 | 1.0 | -3.0 | 11.8 | 0.85 | 46.2 | i | 131.4
Cc1ccc2c(c1)C(N1CCCC1=O)CC(c1ccco1)N2 (centres undefined) | -1.7 | 2.3 | 67.4 | 0.95 | 97.8 | i | 145.5
CCOC(=O)C1(CCc2ccccc2)CCN(C(=O)c2cnc(C)cn2)CC1 | x | -2.6 | x | 1.02 | 104.8 | i | x
COc1ccc(C(CCN2CCOCC2)c2c(OC)cc(OC)c3c(C)cc(=O)oc23)cc1 (centres undefined) | x | x | x | 0.8 | 105.5 | i | x
COc1ccc(N2C(=O)C(CC(N)=O)N(NC(=O)c3cccc(OC)c3)C2=S)cc1 (centres undefined) | x | -0.7 | 0.0 | 0.87 | 101.0 | i | 106.3
CCC1=NN(C(=O)CCc2ccc3c(c2)OCO3)C(O)(C(F)(F)F)C1 (centres undefined) | x | -0.2 | x | 0.98 | 103.2 | i | x
O=C(/C=C/c1ccccc1)NC(NC(=S)Nc1ccc(Cl)cc1)C(Cl)(Cl)Cl (centres undefined) | -1.8 | 20.6 | x | 0.91 | 101.9 | i | x
Cc1cc(N2CCN(c3ccc([N+](=O)[O-])c4cccnc34)CC2)c2ccccc2n1 | -0.7 | -11.8 | -137.5 | 0.81 | 103.3 | i | 125.5
CCOC(=O)c1cn(C2CC2)c2c(F)c(F)c(F)cc2c1=O | x | 2.0 | x | 1.07 | 105.3 | i | x
Cc1ccc(Cl)cc1N1CCN(S(=O)(=O)c2ccc3c(c2)OCCO3)CC1 | -0.2 | -7.7 | x | 1.02 | 93.5 | i | x
Cn1c(CSc2nc3ccccc3n2C)nc2ccccc21 | -0.7 | -5.5 | -15.4 | 1.01 | 101.1 | i | 78.1
N#C/C(=C\c1ccc(OCc2ccc(C(=O)O)cc2)cc1)C(=O)N1CCOCC1 | 1.0 | -12.3 | 8.6 | 0.91 | 101.3 | i | 102.6
Cc1cc(/C(N)=N/OC(=O)c2cccc(Cl)c2)no1 | x | x | x | 0.98 | 97.6 | i | x
COc1ccc2nc(Nc3sc4c(c3C(N)=O)CCCC4)sc2c1 | -0.2 | -2.6 | x | x | 82.8 | u | x
CCCNS(=O)(=O)c1cccn1-c1ncc(C(F)(F)F)cc1Cl | -1.1 | 4.0 | 23.3 | 1.01 | 101.9 | i | 82.0
Cc1cccc(N2CCN(C(=S)Nc3ccc4nc(N5CCOCC5)cc(C)c4c3)CC2C)c1 (centres undefined) | x | -3.6 | x | 0.77 | 97.2 | i | x
COc1cccc(NC(=O)C2CCCCC2)c1 | -1.1 | -5.6 | 25.0 | 1.05 | 92.4 | i | 52.0
CC(C)(C)c1ccc(C(=O)Nc2ccc([N+](=O)[O-])cn2)cc1 | -1.0 | -5.3 | -28.1 | 0.95 | 100.9 | i | 127.4
CCOc1cc(-c2nc3ccccc3s2)ccc1O | x | x | x | 0.72 | 99.5 | i | x
N#C/C(=C/c1cccc([N+](=O)[O-])c1)C(=O)Nc1ccccc1O | x | x | x | 0.92 | 126.6 | i | x
CCOc1cccc(-c2cc(C(=O)N3N=C(C)CC3(O)C(F)F)c3ccccc3n2)c1 (centres undefined) | x | 0.9 | -5.6 | 0.87 | 102.4 | i | 130.6
COc1cccc(C2CCCN2Cc2nc(-c3sccc3C)oc2C)c1 (centres undefined) | x | -8.9 | x | 1.02 | 112.9 | i | x
CN(C)CCOC(=O)c1ccc2c(c1)S(=O)(=O)c1ccccc1C2=O | x | x | x | 1.15 | 100.8 | i | x
CCN1CCN(c2nc3c(c(=O)n(C)c(=O)n3C)n2CCSc2ncccn2)CC1 | 3.1 | 4.4 | -8.3 | 0.94 | 100.8 | i | 25.5
O=c1[nH]c2cc3c(cc2cc1CN(CCCO)Cc1nnnn1Cc1ccc(F)cc1)OCO3 | -0.1 | 17.6 | 0.0 | 0.95 | 97.2 | i | 75.6
CC(=O)Nc1ccc2nc(-c3ccc(Br)o3)[nH]c2c1 | 0.3 | 5.6 | 20.7 | 0.98 | 86.7 | i | 133.3
CCCCCCC12CCC(C(=O)O)(CC1)CC2 | 0.1 | 3.9 | 16.7 | 0.89 | 100.4 | i | 144.3
COc1ccc(CC2(CO)CCN(Cc3ccc4nsnc4c3)CC2)cc1 | x | -6.7 | x | 0.87 | 105.2 | i | x
COc1ccc(NC(=O)CC2C(=O)N(Cc3ccccc3)C(=S)N2CCN2CCOCC2)cc1 (centres undefined) | x | -3.7 | -333.3 | 0.85 | 101.8 | i | 85.7
O=c1c(C=NCCN2CCNCC2)c(-c2ccccc2)[nH]n1-c1ccc([N+](=O)[O-])cc1 | x | 2.7 | x | 0.75 | 97.4 | i | x
CC1CN(c2ccc(C(=O)c3ccccc3C(=O)O)cc2[N+](=O)[O-])CC(C)O1 (centres undefined) | x | -4.7 | 14.3 | 0.99 | 101.7 | i | 81.9
CC(C)CNC(=S)N1CCN(C(c2ccccc2)c2ccccc2)CC1 | -1.0 | -14.8 | -40.7 | 0.97 | 121.0 | i | 70.3
COc1ccc(C2=NN(CC(=O)Nc3ccccc3C)C(=O)CC2)cc1 | x | x | x | 1.06 | 93.2 | i | x
Cc1c(C(=O)N2CCN(S(C)(=O)=O)CC2)oc2ccccc12 | 0.3 | -9.7 | -12.5 | 0.9 | 98.7 | i | 109.1
CCCNC(=O)CNC(=S)N(Cc1cc(OC)c(OC)c(OC)c1)C1CCCC1 | -2.8 | -13.0 | 29.7 | 0.93 | 110.3 | i | 103.5
C#CCSc1nc(C)cc(C(=O)OCC)c1C#N | x | x | x | 0.73 | 99.3 | i | x
Cn1cccc1/C=N/NC(=O)Cn1cnc2ccccc21 | -2.8 | 7.9 | 0.0 | 1.01 | 101.5 | i | 93.3

(further entries)
compound | GALR2 ag | PKD1 inh | INS promoter inh | HSV augment primary fold | RGS16-Gao | HSV augment | INS promoter inh cell count
CCOC(=O)C(Cc1ccc(O)cc1)NC(=O)CNC(=O)C(CC(C)C)NC(=O)OC(C)(C)C (centres undefined) | -0.1 | 2.1 | -11.5 | 1.12 | 101.5 | i | 90.7
Cc1ccccc1C(=O)Nc1cccc(-c2nnc(SCC(=O)O)n2C)c1 | -2.8 | -8.8 | 18.8 | 0.93 | 93.0 | i | 122.3
COC(=O)c1ccc(CSc2nnnn2-c2ccccc2)o1 | -2.1 | -14.0 | x | 0.9 | 107.7 | i | x
O=C(OCc1c(Cl)cccc1Cl)c1cccnc1 | 0.5 | -6.5 | 6.5 | 0.95 | 99.3 | i | 104.0
Cc1cccc(-c2nsc(SCC(=O)Nc3ccc4c(c3)OCO4)n2)c1 | -1.2 | -9.1 | x | 1.28 | 105.3 | i | x
COc1ccc(C(C(=O)NC2CCCC2)N(Cc2ccccc2)C(=O)CNC(=O)c2ccco2)cc1 (centres undefined) | -3.0 | -2.9 | -22.9 | 1.11 | 106.3 | i | 67.3
S=C1NC[C@H](c2ccccc2)N1CC1CCCCC1 | x | 0.7 | x | 1.14 | 94.5 | i | x
COc1cccc(/C=C/C(=O)OC(C)C(=O)Nc2c(C)n(C)n(-c3ccccc3)c2=O)c1 (centres undefined) | x | 3.0 | x | 0.83 | 99.0 | i | x
Nc1ccccc1OCCOCCOCCOc1ccccc1N | -2.1 | 5.8 | 0.0 | 0.85 | 99.8 | i | 78.5
COCCCn1c(=O)/c(=C\c2ccc(OC(F)F)c(OC)c2)s/c1=C(/C#N)C(N)=O | x | x | x | 1.21 | 82.3 | i | x

5 entries picked at random from those above, as already listed:
compound | GALR2 ag | PKD1 inh | INS promoter inh | HSV augment primary fold | RGS16-Gao | HSV augment | INS promoter inh cell count
COc1cccc(NC(=O)C2CCCCC2)c1 | -1.1 | -5.6 | 25.0 | 1.05 | 92.4 | i | 52.0
Cc1cc(N2CCN(c3ccc([N+](=O)[O-])c4cccnc34)CC2)c2ccccc2n1 | -0.7 | -11.8 | -137.5 | 0.81 | 103.3 | i | 125.5
O=C1CC(NNC(=O)c2ccc(Br)cc2)C(=O)N1 (centres undefined) | x | x | x | 0.96 | 100.5 | i | x
Cc1cccc(-c2nsc(SCC(=O)Nc3ccc4c(c3)OCO4)n2)c1 | -1.2 | -9.1 | x | 1.28 | 105.3 | i | x
CC(C)CNC(=S)N1CCN(C(c2ccccc2)c2ccccc2)CC1 | -1.0 | -14.8 | -40.7 | 0.97 | 121.0 | i | 70.3

Other records follow:
compound | GALR2 ag | PKD1 inh | INS promoter inh | HSV augment primary fold | RGS16-Gao | HSV augment | INS promoter inh cell count
C=CCNC(=S)N1CCN(CCN=CC2=C(O)CC(c3ccco3)CC2=O)CC1 (centres undefined) | -3.2 | -1.6 | 46.7 | 0.98 | 102.7 | i | 149.6
O=C(NCc1ccccc1)NC(=O)c1ccccc1 | -0.5 | -11.0 | x | 0.97 | 101.8 | i | x
Cc1cc(NC(=O)c2ccc(Cl)c([N+](=O)[O-])c2)no1 | x | x | x | 1.21 | 102.1 | i | x
N/C(CSc1ncccc1C(F)(F)F)=N\O | x | x | x | 1.29 | 94.6 | i | x
CCOC(=O)N1CCC(n2c(=S)[nH]c3cc(OC)c(OC)cc3c2=O)CC1 | 0.5 | -8.6 | -20.0 | 0.91 | 104.6 | i | 107.3
CC(C)(C)c1ccc(CNc2cc(N3CCOCC3)ccc2[N+](=O)[O-])cc1 | -4.1 | -4.6 | 3.3 | 1.02 | 99.6 | i | 89.6
COc1ccc(NC(=S)Nc2ccc3cn[nH]c3c2)cc1 | x | 9.4 | -35.7 | 0.88 | 112.5 | i | 159.4
O=C(O)CCC(=O)Nc1ccc(Br)cc1C(=O)c1ccc(Cl)cc1 | x | x | x | 0.88 | 88.5 | i | x
O=C(CN1CCN(Cc2ccccc2)CC1)c1ccc(Br)cc1 | -1.7 | -9.7 | 30.3 | x | 96.3 | x | 109.9
COC(=O)c1nn(-c2ccccc2)c(=O)cc1O | x | 3.7 | -48.1 | 0.96 | 108.4 | i | 25.6
O=C(N1CCN(c2ccccc2)CC1)C12CC3CC(CC(C3)C1)C2 | -3.1 | -5.6 | 23.1 | 0.93 | 106.4 | i | 43.9

Screening data as filed in PubChem BioAssay.
